DUX4 txn inh = inhibitors of DUX4-driven ZSCAN4 reporter expression, primary screen, 293T cells, Gaussia and Italica luciferase; 293T-iDUX4 ZSCAN4-Gaussia luciferase reporter, 24 h; stronger effect = lower value; activity change, negative = inhibition, % (concentration not given with the values); 37,000 tested, 0.8% active;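 active = -10% or lower and over 25 points stronger than a control reporter; inconclusive = -10% or lower with a smaller gap; inactive = above -10%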;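 note: 0% = median of neutral control wells and -100% = median of positive control wells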
DUX4 txn inh difference = recorded beside DUX4 txn inh, whose call it bears; Gaussia minus Italica difference, %; measured here: selective DUX4 reporter inhibition;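 worked out from the two reporters; negative = selective loss of the DUX4 reporter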
DUX4 txn inh control = further read-out of DUX4 txn inh, marked with its call; activity change, negative = inhibition, %; measured here: Italica tet-on control reporter;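 0 = neutral control and -100 = positive control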
* = called active by the depositor; ? = inconclusive; · = no result given. An excerpt; the hit share may differ from the screen's.

SMILES	DUX4 txn inh	DUX4 txn inh difference	DUX4 txn inh control
O=C(c1ccc2c(c1)OCO2)N1CC(=O)N2[C@H](CO)[C@@H](c3ccc(C#Cc4ccccc4)cc3)[C@H]2C1	3	-7	9.9
C[C@@H]1CN([C@H](C)CO)C(=O)c2c(c3ccccc3n2C)-c2ccccc2CO[C@H]1CN(C)C(=O)Nc1cccc(C(F)(F)F)c1	?	·	·
COc1ccc2c3c([nH]c2c1)[C@@H](CO)N(C(C)=O)CC31CCN(Cc2cc(-c3ccccc3)on2)CC1	5	3	2.9
CCCNC(=O)Nc1ccc2c(c1)C(=O)N(C)C[C@@H](OC)[C@@H](C)CN(C)[C@H](C)CO2	10	7	3.0
CNC(=O)C[C@H]1CC[C@H]2[C@H](COc3ccc(NC(=O)c4ccccc4Cl)cc3C(=O)N2C)O1	-3	-2	-1.2
CCC(=O)N1[C@H](CO)[C@H](c2ccc(C3=CCCCC3)cc2)[C@H]1CNCC1CCC1	1	2	-0.7
COc1cccc(C(=O)Nc2ccc3c(c2)C(=O)N(C)[C@H]2CC[C@@H](CC(=O)NCCCN4CCOCC4)O[C@@H]2CO3)c1	1	0	0.8
C[C@@H]1CCCCO[C@H](CN(C)C(=O)c2ccncc2)[C@@H](C)CN([C@@H](C)CO)C(=O)c2cc(NC(=O)NC3CCCCC3)ccc2O1	-1	-1	0.0
O=S(=O)(c1ccccc1F)N1C[C@@H]2N[C@H](C1)C2c1ccc(-c2cncnc2)cc1 (some centres not stated)	-14*	-27*	13*
CN1c2ccc(-c3ccc(F)cc3)cc2[C@@H]2[C@@H](CCN2C(=O)Cc2cccnc2)[C@H]1CO	-7	-7	0.0
O=C(NCC[C@@H]1CC[C@@H](NS(=O)(=O)c2ccccc2)[C@@H](CO)O1)c1ccccc1F	1	3	-2.1
CN(C)C(=O)c1cccc(-c2ccc([C@@H]3[C@@H](C#N)N(C(=O)C4CCC4)[C@H]3CO)cc2)c1	-2	-2	-0.1
COCC(=O)N(C)C[C@@H]1[C@H](c2ccc(-c3cccnc3)cc2)[C@@H](CO)N1C(C)=O	1	-4	5.9
O=C(c1cnccn1)N1CC[C@@H]2[C@H]1c1cc(-c3ccccc3F)ccc1N[C@@H]2CO	16	7	8.9
N#C[C@@H]1[C@@H](c2ccccc2)[C@@H](CO)N1C(=O)Cc1ccccn1	2	1	1.3
Cc1noc(C)c1NC(=O)NCC[C@H]1CC[C@@H](NC(=O)Nc2cccc(Cl)c2)[C@H](CO)O1	5	2	2.8
Cc1ccc(-c2ccc([C@H]3[C@@H](CO)N4C(=O)CN(C(=O)Nc5ccc(F)cc5)C[C@H]34)cc2)cc1	?	·	·
COCC(=O)N1CCC2(CC1)CN(C(=O)NC1CCCC1)[C@@H](CO)c1c2c2ccc(OC)cc2n1C	10	9	1.6
C[C@H](NC(=O)C[C@H]1C[C@H]2c3cc(NS(=O)(=O)c4ccc(F)cc4)ccc3O[C@H]2[C@@H](CO)O1)c1ccccc1	-6	6	-12
N#C[C@H]1[C@@H](c2ccc(-c3ccccc3)cc2)[C@@H](CO)N1C(=O)Cc1ccccc1	-2	-5	2.5
CCCC#Cc1ccc([C@H]2[C@@H](CO)N3CCCCN(S(=O)(=O)Cc4ccccc4)C[C@@H]23)cc1	?	·	·
CCC(=O)N1[C@@H]2Cn3c(cccc3=O)[C@H]1[C@@H](C(=O)NCc1ccccc1)[C@@H]2CO	4	3	1.7
O=C(C[C@H]1C[C@H]2c3cc(NC(=O)Nc4ccc(C(F)(F)F)cc4)ccc3O[C@H]2[C@@H](CO)O1)NC1CCCCC1	2	6	-4.7
CC(=O)N(C[C@H]1N[C@H](CO)[C@H]1c1ccc(-c2ccccc2)cc1)C(C)C	1	2	-1.6
CCCN1C[C@H](C)[C@H](OC)CN(C)C(=O)c2cc(NC(=O)C3CCC3)ccc2OC[C@@H]1C	1	0	0.6
CN(C)C(=O)C[C@H]1C=C[C@@H](NC(=O)Nc2cccc(F)c2)[C@H](CO)O1	3	1	1.8
COc1ccc(NC(=O)N(C)C[C@@H]2Oc3ncc(C#C[C@H](C)O)cc3C(=O)N([C@H](C)CO)C[C@H]2C)cc1	-3	-4	0.8
O=C(NCC1CC1)[C@@H]1[C@@H](CO)[C@@H]2Cn3c(ccc(C4=CCCCC4)c3=O)[C@@H]2N1Cc1ccccc1F	?	·	·
CCCN(C)C[C@@H]1Oc2cc(/C=C/c3ccccc3)ccc2S(=O)(=O)N([C@@H](C)CO)C[C@H]1C	?	·	·
COc1ccc(S(=O)(=O)N(C)C[C@@H]2Oc3ccc(NC(=O)Cc4cn(C)c5ccccc45)cc3C(=O)N([C@@H](C)CO)C[C@@H]2C)cc1	-7	-2	-4.2
CC(C)NC(=O)Nc1ccc2c(c1)C(=O)N(C)[C@H]1CC[C@@H](CC(=O)NCC3CCCCC3)O[C@@H]1CO2	2	-3	4.6
C[C@@H]1CN([C@@H](C)CO)C(=O)c2cc(NC(=O)CCC(F)(F)F)ccc2O[C@@H](C)CCCCO[C@@H]1CN(C)C(=O)CCCN(C)C	-2	-4	1.7
COc1cccc(S(=O)(=O)Nc2ccc3c(c2)[C@@H]2C[C@H](CC(=O)N[C@@H](C)c4ccccc4)O[C@H](CO)[C@@H]2O3)c1	-2	-2	-0.1
CCC(=O)NC[C@@H]1[C@H](c2ccccc2)[C@H](CO)N1C(=O)C1CC1	4	0	4.3
CCCNC(=O)N1CC2(C1)[C@@H](c1ccccc1)[C@@H](CO)N2Cc1ccc(Cl)cc1	-2	0	-2.5
CCC(=O)N1CC2(C1)[C@@H](c1ccccc1)[C@@H](CO)N2Cc1cccc(Cl)c1	-4	0	-4.4
COc1cccc(-c2ccc([C@@H]3[C@H]4CN(C(=O)c5cccnc5)CC(=O)N4[C@H]3CO)cc2)c1	-4	1	-4.8
COc1ccccc1NC(=O)N[C@H]1CC[C@@H](CCn2cc(-c3cccnc3)nn2)O[C@H]1CO	6	3	2.5
CCS(=O)(=O)N(C)C[C@@H]1N[C@H](CO)[C@@H]1c1ccc(C#CC(C)C)cc1	0	-1	1.8
COCCNC(=O)C[C@H]1CC[C@@H]2[C@H](COC[C@@H](O)CN2Cc2ccc(Cl)c(Cl)c2)O1	-5	-2	-2.7
C[C@@H](NC(=O)[C@H]1[C@H](CO)[C@H]2Cn3c(cccc3=O)[C@@H]1N2Cc1ccccc1)c1ccccc1	-9	-9	0.0
O=C(Nc1cccc(F)c1)N1CC(=O)N2[C@@H](CO)[C@H](c3ccc(Br)cc3)[C@@H]2C1	0	-8	8.4
CCC(=O)NC[C@H]1[C@@H](c2ccccc2)[C@@H](CO)N1C(=O)C1CCC1	3	2	0.9
C[C@@H](NC(=O)[C@H]1[C@H](CO)[C@H]2Cn3c(ccc(C4=CCCC4)c3=O)[C@@H]1N2C(=O)C1CC1)c1ccccc1	-4	-8	3.5
COCC#Cc1ccc([C@@H]2[C@H]3CN(Cc4cccnc4)CCCCN3[C@H]2CO)cc1	6	1	4.9
CC(=O)N1[C@H](CN(CC(C)C)C(=O)c2ccccn2)[C@@H](c2ccccc2)[C@@H]1CO	3	3	0.4
CCC(=O)N1[C@H](CO)[C@H](c2ccc(-c3cccc(F)c3)cc2)[C@H]1CNC(C)=O	2	3	-0.7
COCC(=O)N1C[C@H]2[C@@H](c3ccccc31)[C@@H](CO)N2Cc1ccccc1F	2	1	1.7
O=C(c1ccccn1)N1CC2(C1)[C@H](c1ccccc1)[C@H](CO)N2Cc1ccc(F)cc1	3	7	-3.9
C[C@H]1CN([C@@H](C)CO)C(=O)CCCn2nncc2CO[C@H]1CN(C)CC1CCCCC1	12	6	5.4
COc1cccc(C(=O)N2C[C@@H]3[C@H](c4ccccc42)[C@@H](CO)N3Cc2ccccc2F)c1	-1	-1	-0.8
COc1ccc([C@H]2C/C=C\C[C@H](c3ccc4c(c3)OCO4)NC(=O)[C@H](c3ccccc3)CC(=O)N2)c(OC)c1	2	1	0.4
C[C@H]1CN([C@@H](C)CO)C(=O)c2c(c3ccccc3n2C)-c2ccccc2CO[C@@H]1CN(C)S(=O)(=O)c1ccc([N+](=O)[O-])cc1	-5	1	-6.2
C/C=C/c1ccc([C@@H]2[C@@H](CO)N(C(C)=O)[C@H]2CN(C)C(=O)c2ccccn2)cc1	4	3	1.4
CCC(=O)N1CC(=O)N2[C@H](C1)[C@@H](c1ccc(C#CC3CCCCC3)cc1)[C@@H]2CO	?	·	·
CC(C)NC(=O)N1[C@H](C#N)[C@H](c2ccc(C#CC3CCCCC3)cc2)[C@H]1CO	-5	-5	0.5
COc1ccc(-c2ccc([C@H]3[C@@H](CO)N4CCCCN(C(=O)c5ccc(F)cc5)C[C@H]34)cc2)cc1	?	·	·
C[C@@H]1CCCCO[C@@H](CN(C)S(C)(=O)=O)[C@H](C)CN([C@H](C)CO)C(=O)c2cc(N(C)C)ccc2O1	-5	-6	0.9
COc1cccc(C(=O)Nc2ccc3c(c2)C(=O)N(C)[C@H]2CC[C@@H](CC(=O)NCCCN4CCOCC4)O[C@H]2CO3)c1	0	1	-1.1
CCS(=O)(=O)Nc1ccc2c(c1)C(=O)N(C)C[C@@H](OC)[C@@H](C)CN(C(=O)C1CCC1)[C@@H](C)CO2	3	5	-1.9

Continued.
SMILES	DUX4 txn inh	DUX4 txn inh difference	DUX4 txn inh control
COCC(=O)N1[C@@H](CO)[C@@H]2c3ccccc3N(C(=O)c3ccccc3)C[C@@H]21	4	4	-0.3
C[C@H]1CN([C@@H](C)CO)C(=O)c2cc(N(C)C)ccc2O[C@H]1CN(C)S(=O)(=O)c1cn(C)cn1	-2	-1	-1.4
COc1cccc(NC(=O)N2C[C@@H](O)COC[C@@H]3O[C@H](CC(=O)NCc4ccccc4F)CC[C@H]32)c1	1	2	-1.9
CCC(=O)N1CC2(C1)[C@H](c1ccc(-c3ccc(F)cc3)cc1)[C@@H](CO)N2C(C)=O	2	-1	2.4
CCS(=O)(=O)N1CC2(CN(Cc3ccccc3)[C@@H](CO)c3c2c2ccc(OC)cc2n3C)C1	?	·	·
O=C(Nc1ccccc1F)N1C[C@@H]2[C@H](c3ccccc31)[C@H](CO)N2C(=O)Nc1ccccc1	1	4	-3.6
CCCNC(=O)Nc1ccc2c(c1)OC[C@H](C)N(C(=O)C1CCOCC1)C[C@H](C)[C@H](OC)CN(C)C2=O	9	7	2.4
COc1ccccc1S(=O)(=O)N[C@H]1C=C[C@@H](CC(=O)N2CCOCC2)O[C@H]1CO	-3	-9	5.7
CO[C@@H](CN(C)Cc1ccc2c(c1)OCO2)[C@H](C)CN(C(=O)Nc1ccc(F)cc1)[C@H](C)CO	-1	0	-1.4
COc1ccc2c3c([nH]c2c1)[C@H](CO)N(Cc1cccc(F)c1)CC31CCN(C(C)=O)CC1	?	·	·
CO[C@H](CN(C)C(=O)c1ccccc1F)[C@@H](C)CN([C@@H](C)CO)S(=O)(=O)c1ccc(F)cc1	0	0	-0.2
CCCNC(=O)[C@H]1[C@H](CO)[C@H]2Cn3c(ccc(-c4ccc(F)cc4)c3=O)[C@H]2N1CC	4	-7	11
O=C(C[C@H]1C[C@@H]2c3cc(NC(=O)NC4CCCCC4)ccc3O[C@@H]2[C@H](CO)O1)NCc1ccccn1	6	9	-2.8
CCCNC(=O)C[C@H]1CC[C@@H]2[C@H](COC[C@@H](O)CN2C(=O)Nc2ccc3c(c2)OCO3)O1	8	3	4.2
CCCNC(=O)C[C@H]1CC[C@@H]2[C@H](COc3ccc(NC(=O)c4cccc(C(F)(F)F)c4)cc3C(=O)N2C)O1	2	2	-0.2
C[C@H]1CCCCO[C@H](CN(C)Cc2ccc(C(F)(F)F)cc2)[C@@H](C)CN([C@@H](C)CO)C(=O)c2cc(NC(=O)Nc3cccc4ccccc34)ccc2O1	3	-1	4.5
C/C=C/c1ccc2c(c1)O[C@H](CN(C)C(=O)CN1CCOCC1)[C@@H](C)CN([C@@H](C)CO)S2(=O)=O	4	1	3.0
N#C[C@@H]1[C@H](c2ccc(-c3ccccc3F)cc2)[C@H](CO)N1C(=O)Cc1ccccc1	-2	0	-2.1
CCCNC(=O)N1C[C@@H]2N[C@H](C1)C2c1ccc(-c2ccc(OC)cc2)cc1 (some centres not stated)	?	14	-14

A different layout for eleven compounds above.
Each structure is followed by: DUX4 txn inh, DUX4 txn inh difference, DUX4 txn inh control
- O=C(c1ccc2c(c1)OCO2)N1CC(=O)N2[C@H](CO)[C@@H](c3ccc(C#Cc4ccccc4)cc3)[C@H]2C1
 : 3, -7, 9.9
- C[C@@H]1CN([C@H](C)CO)C(=O)c2c(c3ccccc3n2C)-c2ccccc2CO[C@H]1CN(C)C(=O)Nc1cccc(C(F)(F)F)c1
 : ?, ·, ·
- COc1ccc2c3c([nH]c2c1)[C@@H](CO)N(C(C)=O)CC31CCN(Cc2cc(-c3ccccc3)on2)CC1
 : 5, 3, 2.9
- CCCNC(=O)Nc1ccc2c(c1)C(=O)N(C)C[C@@H](OC)[C@@H](C)CN(C)[C@H](C)CO2
 : 10, 7, 3.0
- CNC(=O)C[C@H]1CC[C@H]2[C@H](COc3ccc(NC(=O)c4ccccc4Cl)cc3C(=O)N2C)O1
 : -3, -2, -1.2
- CCC(=O)N1[C@H](CO)[C@H](c2ccc(C3=CCCCC3)cc2)[C@H]1CNCC1CCC1
 : 1, 2, -0.7
- COc1cccc(C(=O)Nc2ccc3c(c2)C(=O)N(C)[C@H]2CC[C@@H](CC(=O)NCCCN4CCOCC4)O[C@@H]2CO3)c1
 : 1, 0, 0.8
- C[C@@H]1CCCCO[C@H](CN(C)C(=O)c2ccncc2)[C@@H](C)CN([C@@H](C)CO)C(=O)c2cc(NC(=O)NC3CCCCC3)ccc2O1
 : -1, -1, 0.0
- O=S(=O)(c1ccccc1F)N1C[C@@H]2N[C@H](C1)C2c1ccc(-c2cncnc2)cc1 (some centres not stated)
 : -14*, -27*, 13*
- CN1c2ccc(-c3ccc(F)cc3)cc2[C@@H]2[C@@H](CCN2C(=O)Cc2cccnc2)[C@H]1CO
 : -7, -7, 0.0
- O=C(NCC[C@@H]1CC[C@@H](NS(=O)(=O)c2ccccc2)[C@@H](CO)O1)c1ccccc1F
 : 1, 3, -2.1

Screens from PubChem BioAssay.
